Beta2AR agonist = human beta-2 adrenergic receptor agonism by FAP. Am2.2-beta2AR cells, FAP receptor internalization, flow cytometry; reference of the scale not given here. response, % (no concentration beside the values). hit rate 0.43% among 340,000;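 active = response above a set limit, near 3 SD of response in nonfluorescent compounds, cut at about 42% in these data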;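 also: stock transfer was 100 nL into about 11 µL; a reference agonist was the positive control; negative values mostly stem from fluorescent compounds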
RanGTP-Impb inh = disruptors of Ran-importin-beta complex formation – biochemical, FRET, CFP-Ran, YFP-importin-beta, homogeneous, primary screen; cell-free CFP-Ran/YFP-importin-beta FRET ratio; inhibition, % (no concentration beside the values); hit rate 1.1% among 300,000; AID 2216;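 active = most replicates above 15%; inconclusive = exactly half above 15%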;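 also: 0% = DMSO wells and 100% = Ran loaded with GDP instead of GTP; wells of about 40 µL received 100 nL stock; the first replicate is given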
ALR H2O2 inh = human ALR oxidase inhibition via reduced H2O2; hit rate 3.8% among 290,000; P55789; inhibition, % (test concentration not listed); purified ALR, DTT oxidation, H2O2 HRP-luminol luminescence;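 active = mean and each replicate at 75% or more; inconclusive = only one of the two met; inactive = neither met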;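 also: stock transfer was 7.5 nL into about 7.5 µL; 0% = neutral wells and 100% = wells with inactivated enzyme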
Calb FLC = affects C. albicans growth with fluconazole; hit rate 0.57% among 300,000; growth inhibition, % (no concentration beside the values); C. albicans CaCi-2 (fluconazole-resistant clinical isolate) + fluconazole, Alamar Blue growth, 48 h; AID 1979;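 active = most replicates above 75%; inconclusive = exactly half above 75%; inactive = most below 75%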;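 also: all wells also contain fluconazole at 8 µg/ml as a sub-toxic cotreatment; 0% = median of DMSO wells and 100% = median of geldanamycin control wells; wells of about 8 µL received 7.5 nL stock; the first replicate is given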
HNF4A DNA FP = change in binding of human HNF4 alpha to DNA. P41235. HNF4a-FITC DNA binding, fluorescence polarization, 1 h. hit rate 0.3% among 360,000. AID 1224865. activity change, % at 10 µM; in the data active = activity change above about 30%, passing the limit was not always enough;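 also: controls were the assay level and a saturating level of protein; the project sought stronger binding though the title names inhibitors; some compounds called inactive have numbers as strong as hits; positive values seem to mean higher polarization but the record does not say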
Vif TR-FRET = inhibitors of Vif binding to APOBEC3G peptide, primary screen, biochemical, TR-FRET, GST-Vif 1-94, biotin-A3G peptide, dose response retest (AID 1117319); TR-FRET GST-Vif / biotin-A3G peptide binding; higher % means a stronger effect; test concentration not given here; strong numbers were not always called active; one-dose inhibition, %; IC50 in µM for titrated hits; hit rate 0.57% among 260,000;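 active = above the screen mean plus three standard deviations and confirmed in dose response; inconclusive = results disagree or hit not tested in dose response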;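 also: Vif residues 1-94 fused to GST binding biotinylated APOBEC3G peptide 110-148; 0% = full assay without inhibitor and 100% = GST in place of GST-Vif; retest series ran down from 100 µM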
LANA-H2A inh = blocks KSHV LANA binding to histone H2A/H2B. cell-free LANA-H2A/H2B peptide, fluorescence polarization. inhibition, % (test concentration not listed). hit rate 0.6% among 320,000. Q9QR71; in the data active = inhibition mostly above about 10%, no sharp cut-off; inactive = mostly below about 6.7%;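 also: stock transfer was 7.5 nL into about 10 µL; 0% = median of vehicle wells and 100% = median of positive control wells; one replicate is shown; the record names a cut of 25% in any replicate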
Target sequence (Q9QR71 whole entry, looked up): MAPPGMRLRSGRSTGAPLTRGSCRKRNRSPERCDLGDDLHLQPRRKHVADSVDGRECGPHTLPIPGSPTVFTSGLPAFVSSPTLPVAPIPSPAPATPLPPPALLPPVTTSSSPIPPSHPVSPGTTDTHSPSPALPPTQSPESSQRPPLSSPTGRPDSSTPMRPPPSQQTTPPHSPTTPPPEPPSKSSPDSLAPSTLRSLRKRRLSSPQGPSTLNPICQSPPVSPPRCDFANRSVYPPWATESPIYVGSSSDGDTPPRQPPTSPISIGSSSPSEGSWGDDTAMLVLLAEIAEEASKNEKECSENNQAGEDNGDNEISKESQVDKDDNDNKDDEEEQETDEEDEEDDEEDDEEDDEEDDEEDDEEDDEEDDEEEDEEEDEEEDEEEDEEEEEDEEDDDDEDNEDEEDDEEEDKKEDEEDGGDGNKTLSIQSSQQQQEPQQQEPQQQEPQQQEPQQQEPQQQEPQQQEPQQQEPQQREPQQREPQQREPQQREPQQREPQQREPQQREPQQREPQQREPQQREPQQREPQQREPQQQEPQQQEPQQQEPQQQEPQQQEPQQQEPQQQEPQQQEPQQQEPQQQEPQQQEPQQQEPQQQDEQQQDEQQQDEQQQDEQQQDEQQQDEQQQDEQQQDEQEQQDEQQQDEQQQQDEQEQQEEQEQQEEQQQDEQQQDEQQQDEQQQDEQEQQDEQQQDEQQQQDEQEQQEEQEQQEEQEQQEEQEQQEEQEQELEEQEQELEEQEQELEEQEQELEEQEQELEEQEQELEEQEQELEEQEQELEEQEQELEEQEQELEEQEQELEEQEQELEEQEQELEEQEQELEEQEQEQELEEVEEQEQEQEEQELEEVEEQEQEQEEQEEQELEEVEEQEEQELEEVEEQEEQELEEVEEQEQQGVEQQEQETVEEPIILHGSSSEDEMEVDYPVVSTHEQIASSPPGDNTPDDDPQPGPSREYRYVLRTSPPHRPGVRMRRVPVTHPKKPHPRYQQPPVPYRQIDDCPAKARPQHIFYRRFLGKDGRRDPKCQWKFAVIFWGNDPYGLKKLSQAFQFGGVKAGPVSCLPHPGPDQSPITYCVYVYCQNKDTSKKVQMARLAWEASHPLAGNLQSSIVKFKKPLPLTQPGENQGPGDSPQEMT
The depositor's hits bear a star; ? = inconclusive; . = not tested or not shown.

Sequence of screens: Beta2AR agonist, RanGTP-Impb inh, ALR H2O2 inh, Calb FLC, HNF4A DNA FP, Vif TR-FRET, LANA-H2A inh
1: CSc1ncc(F)c(N(CCO)CCO)n1
 : 4, -4.5, 8, 6, -3.0, ., 0.6
2: CC(=O)Nc1ccc(NC(=O)Cc2sc(-c3cccnc3)nc2-c2ccc(C)cc2)cc1
 : -34, 1.1, -7, 3, 1.0, 0%, 0.9
3: CCOc1ccc(-c2nnc(-c3snc(-c4ccc(F)cc4)c3N=CN(C)C)o2)cc1
 : 12, 2.5, -4, 2, -0.1, -9%, 3.8
4: O=C(Nc1ccccc1F)C1CCN(C(=O)NCc2ccccc2)CC1
 : 1, -2.5, 0, 2, -0.3, ., 1.5
5: CCOC(=O)C1=C(COC(=O)COc2ccc(OCC)cc2)NC(=O)NC1C (configuration not stated)
 : -4, 6.8, -2, 0, -4.1, 4%, -5.0
6: O=C1c2ccccc2C(=O)C1(CO)c1ccc(OC(F)F)cc1
 : 6, 3.4, 49, 3, -3.0, ., 4.8
7: CC(=O)c1ccc(NC(=O)Nc2ccc3c(c2)nc(C)n3C)cc1
 : -11, 1.2, -12, 32, 0.3, 11%, 0.7
8: C=CCn1c(-c2oc3nc(-c4ccccc4)cc(-c4ccccc4)c3c2N)n[nH]c1=S
 : -2, -3.9, 6, -8, 15, 10%, 2.8
9: COC(=O)c1ccc(S(=O)(=O)c2ccc([N+](=O)[O-])cc2)cc1
 : 6, -3.1, -23, 6, -3.2, ., -4.4
10: N=C1/C(=C/c2ccc(-c3cccc(C(=O)O)c3)o2)C(=O)N=C2SC=C(c3ccccc3)N12
 : 6, -7.1, 4, 32, -11, ?, -9.9

Sequence of screens: Beta2AR agonist, RanGTP-Impb inh, ALR H2O2 inh, Calb FLC, HNF4A DNA FP, Vif TR-FRET, LANA-H2A inh
11: CC(=O)N[C@@H]1c2c(ccc3ccccc23)OC[C@@H]1COC(C)=O
 : -2, 0.8, -1, 18, 4.4, 1%, 4.2
12: NC(=O)C1CC(=O)N(c2ccc(OCc3ccc([N+](=O)[O-])cc3)cc2)C1 (configuration not stated)
 : 0, 3.4, -12, 39, -4.7, ., 11
13: Cc1ccc(NC(=O)Cn2c([N+](=O)[O-])cnc2C)cc1
 : -2, -1.1, ., 0, 0.7, -14%, -0.3
14: O=C(Nc1nnc(CCc2ccccc2)s1)c1ccc(F)cc1
 : 0, -4.1, -12, 7, 1.5, ., 4.3
15: CCN(CC)S(=O)(=O)c1ccc(O)c(NC(=O)CN2CCc3ccccc3C2)c1
 : -1, 6.9, 1, -17, 1.4, 10%, 4.1
16: C[C@]12CCC(O)CC1=CCC1C2CC[C@]2(C)/C(=N\NC(N)=S)CCC12 (some centres not stated)
 : 0, 5.0, -9, -6, 0.9, 0%, -1.8
17: COc1cc(C(=O)Nc2nnc(-c3sccc3C)s2)cc(OC)c1OC
 : -5, 2.4, -5, 1, 7.3, -44%, -7.0
18: CCOC(=O)c1cnc2cc(Cl)c(OC)cc2c1NCC1CCCO1 (configuration not stated)
 : -22, -3.4, -3, ., -4.5, -16%, 4.0
19: Cc1cc(-c2onc3ccc(Cl)cc23)ccc1O
 : 26, -1.7, 46, 1, 4.0, ., -6.4
20: CC1CCN(C(=O)CNC(=O)Cc2ccccc2)CC1
 : -4, 2.3, ., 7, -0.6, 0%, 7.6

Sequence of screens: Beta2AR agonist, RanGTP-Impb inh, ALR H2O2 inh, Calb FLC, HNF4A DNA FP, Vif TR-FRET, LANA-H2A inh
21: CCCOc1ccc(-c2nc(OC)c3ccccc3n2)cc1
 : -1, 3.5, -3, 21, 2.2, -1%, -2.0
22: COc1cccc(CNC(=O)CN2C(=O)NC(Cc3ccccc3)(c3ccccc3)C2=O)c1 (configuration not stated)
 : 7, ., -3, ., -4.6, -9%, -18
23: CC(C)Nc1nnc(SC(C)C(=O)Nc2ccc(Cl)cn2)s1 (configuration not stated)
 : 7, -4.5, -8, 1, -2.3, 8%, 4.1
24: CC1CCCC(NC(=O)CSC2=Nc3ccccc3C3CC=NN23)C1C (configuration not stated)
 : -2, ., 10, ., 2.9, -4%, -6.6
25: CCN(CC)C(=O)CSc1nnc(C2CCCCC2)o1
 : -4, 3.5, -2, -4, -0.4, -5%, 2.0
26: c1ccc2c(c1)OCCOCCOCCO2
 : 4, -1.0, 1, 0, 3.5, -7%, 0.1
27: CC(C)(C)NC(=O)N1c2ccccc2Sc2ccccc21
 : -21, 3.1, 82*, 5, -3.6, -2%, 0.6
28: Nc1cccc(/C=C/c2ccncc2)c1
 : 0, -1.3, 99*, -5, 1.5, -3%, 2.7
29: O=C(C1CCN(c2nnc(-n3cccc3)s2)CC1)N1CCCCC1
 : -8, ?, -5, 3, 1.4, ., -1.8
30: CC1CCc2sc(NC(=O)C3CC(Cl)=CCC3C(=O)O)c(C#N)c2C1 (configuration not stated)
 : -9, 5.3, 34, 33, 2.5, ., -3.1

Single values from the results shown.
entry 26 – LANA-H2A inh: 0.1
entry 21 – ALR H2O2 inh: -3
entry 24 – Beta2AR agonist: -2

(further entries)
Sequence of screens: Beta2AR agonist, RanGTP-Impb inh, ALR H2O2 inh, Calb FLC, HNF4A DNA FP, Vif TR-FRET, LANA-H2A inh
31: Cc1ccc(NC(=S)N/N=C/c2c(C)nn(-c3ccccc3)c2N2CCCC2)cc1
 : 7, 0.9, -1, 17, -3.2, ?, 6.1
32: COc1cc(/C=N/NC(=O)c2ccc(NC(=O)C3CCCCC3)cc2)ccc1O
 : 5, 4.4, 51, -2, 1.8, ., -3.8
33: COc1cccc2c1C(=O)c1c(O)c3c(c(O)c1C2=O)CC(O)(C(C)=O)CC3OC1CC(N(C)C)C(O)C(C)O1 (configuration not stated)
 : -75, ., ., ., -57, 1%, .
34: c1cncc(C(c2nnnn2C2CCCC2)N2CCCC2)c1 (configuration not stated)
 : -2, -3.8, -5, 4, 1.4, 2%, 9.4
35: CC(C)(C)OC(=O)NC(CO)c1cn([C@@H](Cc2cc3ccccc3[nH]2)C(=O)N2CCN(C(=O)OC(C)(C)C)CC2)nn1 (some centres not stated)
 : -4, 2.1, -5, -5, 1.1, -7%, -1.1
36: N#Cc1ccc(-c2cccs2)nc1SCc1cccnc1
 : 8, -2.0, 5, 17, 1.1, -7%, 3.8
37: COc1ccc(NC(=O)c2ccc(N3CCOCC3)nc2)cc1
 : 1, 0.8, -3, 23, 2.8, ., -3.8
38: C=CCn1c(=O)c2c(C)c(C)sc2n2c(Nc3ccc(OC)cc3)nnc12
 : 0, 3.1, 47, 4, 0.8, 3%, -5.7
39: CCOc1ccc(NC(=O)CN2CCN(c3ccccc3C)CC2)cc1S(=O)(=O)N1CCCC1
 : -6, ., 2, ., 1.1, -5%, -0.9
40: Cc1ccc(C(=O)NNC(=O)c2cccc3ccccc23)cc1
 : -6, ., ., ., 0.6, -11%, .

Quoted at random: 6 records from the list.
Sequence of screens: Beta2AR agonist, RanGTP-Impb inh, ALR H2O2 inh, Calb FLC, HNF4A DNA FP, Vif TR-FRET, LANA-H2A inh
33: COc1cccc2c1C(=O)c1c(O)c3c(c(O)c1C2=O)CC(O)(C(C)=O)CC3OC1CC(N(C)C)C(O)C(C)O1 (configuration not stated)
 : -75, ., ., ., -57, 1%, .
37: COc1ccc(NC(=O)c2ccc(N3CCOCC3)nc2)cc1
 : 1, 0.8, -3, 23, 2.8, ., -3.8
40: Cc1ccc(C(=O)NNC(=O)c2cccc3ccccc23)cc1
 : -6, ., ., ., 0.6, -11%, .
32: COc1cc(/C=N/NC(=O)c2ccc(NC(=O)C3CCCCC3)cc2)ccc1O
 : 5, 4.4, 51, -2, 1.8, ., -3.8
36: N#Cc1ccc(-c2cccs2)nc1SCc1cccnc1
 : 8, -2.0, 5, 17, 1.1, -7%, 3.8
35: CC(C)(C)OC(=O)NC(CO)c1cn([C@@H](Cc2cc3ccccc3[nH]2)C(=O)N2CCN(C(=O)OC(C)(C)C)CC2)nn1 (some centres not stated)
 : -4, 2.1, -5, -5, 1.1, -7%, -1.1

Remaining list, next part.
Sequence of screens: Beta2AR agonist, RanGTP-Impb inh, ALR H2O2 inh, Calb FLC, HNF4A DNA FP, Vif TR-FRET, LANA-H2A inh
41: Cc1cccc(/C=N/NC(=O)c2cc(Br)ccc2OCc2ccccc2)n1
 : -10, -0.3, 5, 10, -4.5, ., 5.9
42: CCOc1cc(-c2nc(-c3ccncc3)no2)cc(OCC)c1OCC
 : -3, 0.1, -5, ?, 0.8, 16%, 2.5
43: COCCN(C(=O)CSc1nc2ccccc2c(=O)n1C(C)COC)c1c(N)n(Cc2ccccc2)c(=O)[nH]c1=O (configuration not stated)
 : -5, 0.5, -5, -7, -2.8, 8%, 6.1
44: Cc1csc(Nc2ccccc2)n1
 : 1, 1.3, 98*, 17, 2.2, ., 0.6
45: CC(C)(C)NC(=S)NC(C)(C)C
 : -1, -0.5, ., 2, -2.9, -2%, .
46: CCC(C)n1c(C)cc(=O)n1C(C)CC (configuration not stated)
 : -3, ., ., ., -3.4, -8%, .
47: OC(COc1ccccc1)CN1CCN(CC(O)COc2ccccc2)CC1 (configuration not stated)
 : -7, 5.9, 1, 22, -0.3, 0%, 2.3
48: C[C@@]12C(=O)Nc3ccc(Br)cc3C(=O)N1[C@H]1c3cc(Cl)ccc3OC[C@@H]1[C@@H]2c1ccccc1
 : 5, ., 1, ., -4.4, ., 0.7
49: O=C(c1cccc(Cl)c1)N1CCC(c2nc3ccccc3[nH]2)CC1
 : -6, 4.6, -17, -3, -3.3, -1%, 1.1
50: Cn1c(=O)c2c(ncn2CC(=O)Nc2cc(S(=O)(=O)N3CCCCC3)ccc2O)n(C)c1=O
 : -5, ., ., ., 3.0, -8%, 3.6

Profiles as entered above. Order of screens: Beta2AR agonist	RanGTP-Impb inh	ALR H2O2 inh	Calb FLC	HNF4A DNA FP	Vif TR-FRET	LANA-H2A inh
Listed for CCC(C)n1c(C)cc(=O)n1C(C)CC (configuration not stated) = -3	.	.	.	-3.4	-8%	.
Listed for OC(COc1ccccc1)CN1CCN(CC(O)COc2ccccc2)CC1 (configuration not stated) = -7	5.9	1	22	-0.3	0%	2.3
Listed for CCOc1cc(-c2nc(-c3ccncc3)no2)cc(OCC)c1OCC = -3	0.1	-5	?	0.8	16%	2.5
Listed for O=C(c1cccc(Cl)c1)N1CCC(c2nc3ccccc3[nH]2)CC1 = -6	4.6	-17	-3	-3.3	-1%	1.1
Listed for Cn1c(=O)c2c(ncn2CC(=O)Nc2cc(S(=O)(=O)N3CCCCC3)ccc2O)n(C)c1=O = -5	.	.	.	3.0	-8%	3.6

The listing continues.
Sequence of screens: Beta2AR agonist, RanGTP-Impb inh, ALR H2O2 inh, Calb FLC, HNF4A DNA FP, Vif TR-FRET, LANA-H2A inh
51: CCCS(=O)(=O)N1CCN(S(=O)(=O)c2ccccc2)CC1
 : 10, 1.1, ., 5, 0.2, -5%, -7.8
52: CCOc1cc(/C=C2/C(=O)ON=C2C)ccc1O
 : 26, -1.4, 99*, 9, -1.2, -7%, -1.9
53: CCCC(=O)N1CCN(c2ccc(NC(=S)NC(=O)c3cccc(C)c3)cc2)CC1
 : -2, -1.2, 20, -4, 0.7, -12%, 0.3
54: Cc1ccc2nc(NC(=O)CSc3nnc(C)c(=O)n3N)sc2c1
 : -1, 8.3, ., 11, -1.3, -1%, .
55: CC(=O)Nc1c2c(nn1-c1ccc(C)cc1C)CS(=O)C2 (configuration not stated)
 : 8, -2.2, -3, 0, 5.8, 0%, 0.2
56: CCOc1ccc(-c2noc(COC)n2)cc1OC
 : -1, ., -6, 6, 3.3, 24%, 5.9
57: COC(CN(C(=O)CCl)C(C(=O)NC1CCCC(C)C1C)c1ccc(C)cc1)OC (configuration not stated)
 : 8, -0.7, 2, -29, -1.0, ., -3.8

Screening results (PubChem BioAssay)
